Rango complex inh: prevents formation of the Rango-importin beta complex; Q14974; Rango CFP/YFP FRET sensor + importin beta, 45 min; Potency, µM (highest dose often 92.2 µM), inactives show at the highest dose inhibition of complex formation; AID 540263; 340,000 tested, 0.031% active; active = rising FRET ratio curve, often small or poorly fitted; inconclusive = mostly compound fluorescence or quenching in the first reads; inactive = flat curves in all reads;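 further: potency means the concentration at half of the fitted maximal effect; 0% = DMSO wells and 100% = buffer wells lacking importin beta; nearly all actives have a fitted effect of over 15% in size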
Target sequence (Q14974 whole entry, looked up): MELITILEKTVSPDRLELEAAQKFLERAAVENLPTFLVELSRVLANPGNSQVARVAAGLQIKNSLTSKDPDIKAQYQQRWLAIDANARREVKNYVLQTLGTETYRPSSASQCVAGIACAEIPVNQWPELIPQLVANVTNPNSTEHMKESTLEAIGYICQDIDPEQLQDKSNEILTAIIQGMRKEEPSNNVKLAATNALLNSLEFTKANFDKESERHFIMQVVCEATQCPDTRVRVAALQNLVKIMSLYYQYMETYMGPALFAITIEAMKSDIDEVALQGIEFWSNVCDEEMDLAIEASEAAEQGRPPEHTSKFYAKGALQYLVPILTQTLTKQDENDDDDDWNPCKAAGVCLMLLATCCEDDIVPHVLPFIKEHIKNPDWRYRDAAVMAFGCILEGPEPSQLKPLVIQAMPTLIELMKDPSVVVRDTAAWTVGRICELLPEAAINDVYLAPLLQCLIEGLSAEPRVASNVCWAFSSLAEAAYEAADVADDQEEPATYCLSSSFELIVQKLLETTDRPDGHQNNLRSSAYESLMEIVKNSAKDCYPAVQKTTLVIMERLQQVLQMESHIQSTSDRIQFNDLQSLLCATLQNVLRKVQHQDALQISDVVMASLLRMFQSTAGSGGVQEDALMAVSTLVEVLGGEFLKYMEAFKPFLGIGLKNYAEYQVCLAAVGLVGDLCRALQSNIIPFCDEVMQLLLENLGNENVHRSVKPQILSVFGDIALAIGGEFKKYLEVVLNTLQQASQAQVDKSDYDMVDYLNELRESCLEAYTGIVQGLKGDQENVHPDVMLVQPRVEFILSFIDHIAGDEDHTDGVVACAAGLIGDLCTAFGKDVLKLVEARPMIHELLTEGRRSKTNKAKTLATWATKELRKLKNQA
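Inhibition scored from the CFP 486 nm/YFP 530 nm FRET ratio 45 min after adding 0.125 microM importin beta to 50 nM Rango biosensor preincubated 5 min with compound (room temperature, PBS with DTT, Tween-20, BSA). No-importin wells as positive control.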
miR-21 FLuc: miR-21 reporter, rising signal. HeLa miR-21 FLuc reporter, luciferase, 48 h. Potency, µM (series often up to 38.3 µM), for inactives: at the top dose reporter change, positive = more light. 340,000 tested, under 10 active. AID 2288; active = well fitted rising curve with a large enough effect; inconclusive = small, poorly fitted or top-dose-only effect; inactive = no such curve, though single readings can be large or run the other way;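 further: % of control where 0% means no effect; miR-21 action dims this reporter so a rising signal means less miR-21 action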
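Using DMEM plus 10% FBS, HeLa miR-21-FLuc cells are incubated with test compounds (final up to about 40uM) for 48 hours; firefly luciferase signal is then imaged following reagent-mediated lysis.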
GLA inh pH 4.5: alpha-galactosidase A (human) inhibition, pH 4.5 | P06280 | purified enzyme, 4-MU-alpha-Gal fluorescence, pH 4.5 | activity change, negative = inhibition, % at 105 µM | 230,000 tested, under 10 active; inconclusive = small, poorly fitted or top-dose-only inhibition, or a rising curve; inactive = flat fitted curve, though single readings scatter; no compound was filed as active;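 further: 0% = full activity with enzyme and -100% = basal without enzyme; dose as in the result columns while the protocol names 77 µM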
Rango dissoc inh: prevents RanGTP from dissociating the Rango-importin beta complex. O95149+P62826. Biochemical FRET Rango-importin beta, RanGTP-induced dissociation. Potency, µM (highest dose often 46.1 µM), inactives show at the highest dose activity change, negative = inhibition. 340,000 tested, 0.071% active. AID 540253; active means falling FRET ratio curve, often poorly fitted, with flat reads before Ran was added; inconclusive means other falling curves, or compound fluorescence or quenching; inactive means flat or rising ratio curve;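 further: potency means the concentration at half of the fitted maximal effect; % of control where 0% means no effect; nearly all actives have a fitted effect of over 45% in size; -100% = wells without RanGTP and RCC1; the record marks most hits as doubtful in a second field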
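Two FRET readings bracket the reaction: one 5 min after compound meets Rango–importin beta, another 45 min after RanGTP-RCC1 (0.6 uM Ran, 0.2 uM RCC1, 2 mM GTP) is added. Only the second defines inhibition.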
Numbers without * were called inactive; ? = inconclusive; nt = no result given; & = joins results of further samples. Only part of the results is shown (hit frequency here may not be typical).

Rango dissoc inh,GLA inh pH 4.5,miR-21 FLuc,Rango complex inh,SMILES
-9.4%,nt,nt,-0.3%,Nc1ncnc2c1ncn2[C@@H]1O[C@H](CNC(=O)[C@@H](N)Cc2ccc(C(F)(F)F)cc2)[C@@H](O)[C@H]1O
25.3%,nt,nt,0.1%,Cc1ccc(S(=O)(=O)Nc2cc3c4c(c2)CCC(=O)N4CCC3)cc1
?,nt,-7.2%,-2.2%,CC(C)c1ccc(OCC(=O)Nc2ccc(S(=O)(=O)Nc3ccccn3)cc2)cc1
26.6%,-4.4,-41.3%,-0.1%,Nc1ccc2nc(SCc3ccccc3F)sc2c1
9.8%,-13.6,7.6%,-3.5%,CCOC(=O)c1nn(-c2ccc(OC)cc2)c(=O)c2c(N)scc12
-24.5%,-2.2,3.9%,-0.1%,CSC1=NCCN1C(=O)C12CC3CC(CC(C3)C1)C2
10.4%,nt,2.8%,0.9%,COc1ccc(Cl)cc1C(=O)NCCCSc1ccccc1
-14.4%,-11.1,-5.0%,2.0%,O=C(c1ccco1)N1CCN(C(=O)C2CCN(S(=O)(=O)c3cccs3)CC2)CC1
-5.4%,nt,nt,-3.2%,O=[N+]([O-])c1ccccc1S(=O)(=O)N1CCN(S(=O)(=O)c2ccc3c(c2)OCCO3)CC1
?,nt,-0.9%,6.4%,CN(C)C(=O)CN1C(=O)NC(c2ccccc2)(c2ccccc2)C1=O
-20.6%,nt,2.8%,-0.2%,Cc1ccccc1-n1ccnc1SCC(=O)NC1CCCC1
0.6%,nt,nt,-2.7%,COc1ccc(-c2csc3ncnc(N4CCN(S(=O)(=O)c5cccc(F)c5)CC4)c23)cc1
7.5%,nt,nt,-1.3%,CN(CC(=O)Nc1ccc(OC(F)F)cc1)S(=O)(=O)/C=C/c1ccccc1
9.8%,6.6,-2.0%,-3.1%,CC(=O)N1CN(S(=O)(=O)c2ccc(C)cc2)CC1C (centres undefined)
2.6%,2.7,-4.4%,1.4%,O=C(CSc1nc2ccccc2c(=O)n1CCCO)N1CCc2ccccc21
1.3%,-10.3,-1.5%,2.4%,S=c1[nH]nc(-c2cccc(Cl)c2)n1/N=C/c1ccc(-c2ccccc2Br)o1
21.6%,nt,nt,-2.1%,O=C(COC(=O)CNS(=O)(=O)c1ccc(F)c(F)c1F)NC1CC1
9.8%,10.1,-2.1%,1.1%,Cc1cc(NC(=O)Cn2c(C)nc3ccccc3c2=O)ccc1Br
-12.8%,-7.0,2.7%,-3.9%,CCOC(=O)CC/C(C)=N\N=C1\SC(CC(=O)O)C(=O)N1c1ccccc1 (centres undefined)
28.0%,1.5,0.0%,-2.1%,CCOc1ccc(N2CC(C(=O)Nc3ccccc3F)CC2=O)cc1 (centres undefined)
2.0%,-10.0,-6.0%,3.7%,C#CCSc1[nH]c(=O)cc(C)c1C#N
-3.7%,-1.4,-1.0%,0.3%,CCNC(=S)N1CCN(CC(=O)Nc2ccc(Br)cc2)CC1
8.1%,-4.9,0.7%&-14.2%,4.3%,CCCCNC(=O)CSc1nc2n[nH]c(C)c2c(=N)n1-c1cccc(Cl)c1C
0.1%,-14.8,-23.0%,2.3%,Cc1cccc(CSc2ncc(CO)n2C)c1
1.2%,10.7,-19.6%,-2.5%,COc1ccc(-c2csc(NC(=O)CSc3nnc(Nc4ccccc4C)s3)n2)cc1
-15.4%,-1.0,-20.7%,-2.6%,N/C(=N\OC(=O)c1cccc2ccccc12)c1ccccn1
-5.4%,-2.3,-4.4%,?,CCOC(=O)c1ccc(NC(=O)CSc2nc(C)cc(=O)[nH]2)cc1
-2.0%,nt,0.4%,-0.9%,O=C(NN1CCOCC1)c1ccccc1F
-13.3%,3.7,5.6%,-0.5%,Cc1ccc(S(=O)(=O)N(C)Cc2nc(-c3ccncc3)no2)cc1
1.7%,nt,nt,0.7%,Cn1nc(C(=O)OCC(=O)Nc2ccccc2[N+](=O)[O-])c2ccccc2c1=O
3.1%,-4.3,-3.4%,0.0%,COc1ccccc1NC(=O)N1c2ccccc2NC(=O)CC1C (centres undefined)
-9.7%,0.3,-0.4%,0.1%,CN(C)C(=O)C[n+]1cccc(/C=N/O)c1
-2.1%,-0.6,-0.2%,0.2%,CC1=C([N+](=O)[O-])C(c2ccccc2C(F)(F)F)NC(=O)N1C (centres undefined)
5.3%,nt,nt,-2.2%,CC(C)(C)c1nc(-c2ccccc2)nc2c1OCCC2
7.0%,nt,nt,3.8%,Cc1ccc(S(=O)(=O)N2CCN(S(C)(=O)=O)C2C)cc1 (centres undefined)
14.0%,nt,-5.6%,-1.3%,CCOC(=O)COc1ccc(Br)cc1/C=C1\SC(N)=NC1=O
-7.9%,nt,-1.9%,3.7%,Cc1nc(COc2ccc(C(=O)Nc3ccccc3N3CCOCC3)cc2)cs1
-7.2%,nt,-5.4%,-0.6%,O=C(O)CSc1c2c(nc3cc(C(=O)Nc4cccc(C(F)(F)F)c4)ccc13)CCC2
-7.9%,nt,nt,0.9%,Cc1ccc(SCC(=O)OCC(=O)NCC2CCCCC2)cc1C
11.5%,-7.0,-0.8%,-1.4%,C=C(C)Cn1c(-c2cccs2)n[nH]c1=S
-10.5%,5.9,-1.1%,1.1%,COc1ccc(-c2nn[nH]n2)cc1OC
3.8%,-8.3,-0.2%,1.0%,Cc1cccc(C(C)(C)C)c1OCCn1ccnc1
1.9%,6.8,-28.1%,0.4%,C=CCn1c(=NC(=O)c2ccco2)sc2cc(C(=O)OCC)ccc21
-6.9%,nt,nt,3.8%,CN(C)CCn1c2c(c(SCC(=O)NCc3ccccc3)nc1=O)CCCC2
-13.0%,-7.6,-3.9%,2.7%,Cc1ccc(-n2c(-c3ccncc3)n[nH]c2=S)cc1
-4.5%,3.7,0.5%,0.1%,Cc1ncc([N+](=O)[O-])n1Cc1ccc(Br)cc1
14.8%,-10.0,0.2%,-3.6%,CCn1c(COc2cccc(OC)c2)nnc1SCC(=O)Nc1cc(OC)ccc1OC
24.7%,4.6,-3.0%,-0.4%,O=C1C2C(c3ccccc3)C=CC(c3ccccc3)C2C(=O)N1c1cccnc1 (centres undefined)
1.7%,nt,-0.9%,-0.2%,Cc1cc(NC(=O)CCC(=O)N(CC(=O)NC2CCCC2)c2cccc(F)c2)no1
0.9%,nt,-10.3%,-4.8%,COCCN(C(=O)CSCc1ccccc1)c1c(N)n(Cc2ccccc2)c(=O)[nH]c1=O
2.0%,nt,7.5%,0.8%,O=C(NCC1CCCO1)c1ccc(NC(=O)c2cccc([N+](=O)[O-])c2)cc1 (centres undefined)
-4.8%,nt,-0.9%,1.0%,CCn1c(=O)c(CCC(=O)NCC2CCCO2)c(C)c2c(C)nn(-c3ccc(C)cc3)c21 (centres undefined)
0.2%,-12.0,-2.6%,-3.9%,CCN(CC)S(=O)(=O)c1ccc2c(c1)nc(SCC(=O)NC1CC1)n2-c1ccccc1OC
1.7%,7.5,-7.1%,-0.6%,CCOc1ccc(-c2nnc(NC3=NCCCCC3)o2)cc1
-33.4%,nt,-8.1%,-1.6%,O=S(=O)(Nc1ccc(Cl)cc1)c1cccc2nsnc12
-9.4%,4.9,-5.7%,2.2%,Cc1ccc(C2C(C(=O)c3sc(C)nc3C)=C(O)C(=O)N2CCN2CCOCC2)o1 (centres undefined)
3.3%,-14.6,9.9%,2.2%,COC(=O)CC1(c2ccc(OC)cc2)C(=O)c2ccccc2C1=O
-1.4%,3.6,-1.9%,-0.1%,Cc1ccnc(NC(=O)C(C)N2C(=O)c3ccccc3C2=O)c1 (centres undefined)
1.5%,nt,0.3%,-3.3%,Cc1cc(NC(=O)COC(=O)C2CC(=O)N(c3cccc(C)c3C)C2)no1 (centres undefined)
6.7%,nt,0.0%,-0.1%,COc1ccccc1NC(=O)N1CCCC1C(=O)NCCc1ccccc1 (centres undefined)

Fetched by compound from above:
Rango dissoc inh,GLA inh pH 4.5,miR-21 FLuc,Rango complex inh,SMILES
7.0%,nt,nt,3.8%,Cc1ccc(S(=O)(=O)N2CCN(S(C)(=O)=O)C2C)cc1 (centres undefined)
8.1%,-4.9,0.7%&-14.2%,4.3%,CCCCNC(=O)CSc1nc2n[nH]c(C)c2c(=N)n1-c1cccc(Cl)c1C

Shown with values under each structure: entries from further up
Every second line gives: Rango dissoc inh	GLA inh pH 4.5	miR-21 FLuc	Rango complex inh
COC(=O)CC1(c2ccc(OC)cc2)C(=O)c2ccccc2C1=O
    3.3%	-14.6	9.9%	2.2%
O=C1C2C(c3ccccc3)C=CC(c3ccccc3)C2C(=O)N1c1cccnc1 (centres undefined)
    24.7%	4.6	-3.0%	-0.4%
CC(C)c1ccc(OCC(=O)Nc2ccc(S(=O)(=O)Nc3ccccn3)cc2)cc1
    ?	nt	-7.2%	-2.2%
CCOc1ccc(N2CC(C(=O)Nc3ccccc3F)CC2=O)cc1 (centres undefined)
    28.0%	1.5	0.0%	-2.1%
C=CCn1c(=NC(=O)c2ccco2)sc2cc(C(=O)OCC)ccc21
    1.9%	6.8	-28.1%	0.4%

Next section.
Rango dissoc inh,GLA inh pH 4.5,miR-21 FLuc,Rango complex inh,SMILES
?,nt,1.9%,?,COCCn1c(=N)c(S(=O)(=O)c2ccc(F)cc2)cc2c(=O)n3cccc(C)c3nc21
-6.1%,nt,-4.0%,0.5%,CCOc1ccc(NC(=O)C(CC(=O)O)Cc2ccc(C)cc2)cc1 (centres undefined)
0.8%,-4.4,-7.4%,-1.0%,CCOC(=O)Nc1ccc(=O)n(Cc2c(Cl)cccc2Cl)c1
0.4%,nt,nt,0.1%,COc1ccc(-c2noc(CCC(=O)N3CCN(c4ccccc4OC)CC3)n2)cc1
7.0%,-6.9,1.3%,?,N/C(Cc1ccc([N+](=O)[O-])cc1)=N\OC(=O)c1ccc2ccccc2c1
0.4%,-1.6,-30.2%,-0.1%,CCn1ccnc1CN(C)Cc1nc(-c2cccc(Cl)c2)no1
?,nt,-0.4%,?,N#C/C(=C\c1ccccc1Cl)C(=O)Nc1ccccn1
-3.2%,nt,19.7%,-2.4%,COc1ccc(N2CCN(C(=O)C3CCCN(c4ncnc5c4nc4n5CCCCC4)C3)CC2)cc1 (centres undefined)
-13.5%,nt,0.0%,-2.0%,CN1CCN(C(=O)/C(=C\c2cccs2)NC(=O)c2ccccc2)CC1
-3.1%,-5.1,-0.8%,-4.2%,O=C(CN1C(=O)CSCC1=O)NCc1ccc(F)cc1
-0.5%,-0.5,-46.1%,-2.0%,CCCc1nc(Nc2nc3ccccc3o2)nc(C)c1C(=O)OCC
-12.4%,8.6,-8.5%,-4.3%,COc1cc(NS(=O)(=O)c2ccc(NC(=S)NC(=O)c3ccco3)cc2)ncn1
15.8%,nt,-13.8%,4.5%,COCCOC(=O)c1c(C)n(C)c2ccc(OC(=O)c3ccccc3OC)cc12
nt,-1.7,-2.6%,nt,Cc1c(N=C2NC(=O)/C(=C/c3cccc([N+](=O)[O-])c3)S2)c(=O)n(-c2ccccc2)n1C
11.0%,13.1,-28.5%,2.6%,COc1cccc(NC(=O)N(C2CCCCC2)C(C)c2cccs2)c1 (centres undefined)
-10.3%,?,-0.9%,-0.8%,O=S1(=O)CCN(OCc2ccc(Cl)cc2)CC1
2.4%,nt,2.6%,-2.9%,Cc1cc(-c2ccc(C)c(S(=O)(=O)N3CCN(c4ccc([N+](=O)[O-])cc4)CC3)c2)on1
-4.9%,-0.7,-4.0%,4.4%,CCOC(=O)CSCc1c(C#N)c2ccccc2n1C
0.3%,nt,-6.3%,-2.3%,O=C(COc1ccccc1)N1CCCCCCC1
11.6µM*,-3.9,6.4%,?,COc1ccccc1NC(=O)CC1Nc2ccccc2NC1=O (centres undefined)
-5.2%,nt,-4.9%,-0.5%,COc1cccc(C(C(=O)NCC2CCCO2)N(C(=O)Cn2nnc3ccccc32)c2ccc(NC(C)=O)cc2)c1 (centres undefined)
37.6%,5.3,-2.1%,-2.5%,COc1ccc(CCNC(=O)COC(=O)Cc2cccc3ccccc23)cc1
-5.1%,-5.5,-5.7%,-3.1%,CC1Oc2ccccc2N(CC(=O)Nc2ccc3c(c2)OCO3)C1=O (centres undefined)
18.8%,nt,1.9%,1.0%,O=S(=O)(NCc1ccc(F)cc1)c1ccc(-n2cnnn2)cc1
-5.7%,nt,nt,0.0%,CCN(CC)C(=O)n1nc(C)c(CN2C(=O)c3ccccc3C2=O)c1C
